NPYLR7 agonist: activates Aedes aegypti NPYLR7 receptor. HEK293T NPYLR7/Galpha15, GCaMP6s calcium fluorescence. 270,000 tested, 0.15% active. activation, % at 10 µM; in the data active = activation above about 40%;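 also: 0% = vehicle and 100% = reference agonist at the receptor; some compounds past the cut are filed as inactive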
NPYLR7 agonist max-min: second read-out of NPYLR7 agonist, no call of its own (marks repeat the call); activation, %; measured here: Max-Min RFU normalised activation; some inactives read as strong as hits;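 span of the calcium signal over five minutes; 0% = vehicle and 100% = native peptide agonist; compound fluorescence can raise it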
An asterisk follows results filed as active; & = joins results of further samples. A portion of the library; count on the stated rates, not on these rows.

SMILES	NPYLR7 agonist	NPYLR7 agonist max-min
CCOC(=O)N1CCN(C2CCCN(C(=O)c3scc4c3CCCC4)C2)CC1 (configuration not stated)	14&-3	3&-5
Cc1cc(C)n(-c2nnc(C)n2/N=C\c2ccccc2Br)n1	-1	-2
CCC(=O)Nc1cc(S(=O)(=O)N2CCOCC2)ccc1C	14	5
Cc1cc(C)n2ncc(CN3CCN(c4ncccc4C)CC3)c2n1	22	12
Oc1c(Cl)cc(Cl)c2cccnc12	-1&13&4&3	-5&4&2&0
CCc1c(C(=O)NCc2cccnc2)c(CC(C)C)nn1-c1ccc(Cl)cc1	13	8
C=CCNC(N)=S	1	-6
COC(=O)CC(=O)NC1CCN(c2ccccc2C(=O)N2CCN(C(C)=O)CC2)CC1	-1	-2
CSc1ccc2c(C)cc(N3CCC(CCC(N)=O)CC3)nc2c1	3	1
CCOC(=O)N=C(c1ccccc1)C(Cl)Cl	-19	-21
CCCCCCCCC(=O)Nc1c(-c2cccc(OC)c2)nc2ccccn12	-8	-6
COc1ccccc1-n1c(-c2ccc(Cl)cc2)cc(C(=O)NCc2cccnc2)c1C	13	13
Cc1ccc(C(NC(=O)CCc2scnc2C)c2ccncc2)cc1 (configuration not stated)	-4	-9
Cc1ccc(Oc2ccc(NC(C)C(=O)N3CCCC3)cc2)cc1 (configuration not stated)	2	1
CCCc1c(C(=O)Nc2nccs2)nnn1-c1ccc(C)cc1	9	6
CCc1[nH]c2ccc(CNC(=O)COc3ccccc3O)cc2c1C	8	9
O=C(CSCc1cccnc1)NCc1ccc(N2CCCC2)cc1	-5	-5
CCSCC(C)N(C)Cc1cnn(-c2ccccc2)n1 (configuration not stated)	4	3
Cc1nc2ccc(S(=O)(=O)NCCn3nc(-c4ccc(Cl)cc4)ccc3=O)cc2s1	-2	-3
O=C(NCC1CCCO1)c1nn(-c2ccccc2F)c(=O)n(Cc2cccc(Cl)c2)c1=O (configuration not stated)	12	15

SMILES	NPYLR7 agonist	NPYLR7 agonist max-min
NC(=O)c1cncc(N2CCN(Cc3cccc(-n4cccn4)c3)CC2)n1	6	5
COc1cc(-c2cccc3ccnn23)ccc1NC(C)=O	9	3
COc1cccc(Cc2nsc(N3CCC(CNC(=O)C(Cl)c4ccccc4)CC3)n2)c1 (configuration not stated)	-1	6
CCn1nc(C)c(NC(=O)CNC(C)c2ccccc2-n2cccn2)c1C (configuration not stated)	3	-1
CC(CCc1ccco1)NC(=O)C1CC(=O)N(c2ccccc2Br)C1 (configuration not stated)	2	0
Cc1ccc(NC(=O)CN(Cc2ccccc2)c2nc(Cc3ccc(Cl)cc3)ns2)cc1C	-5	3
Cc1cc(C)nc(NCC2CCC2)n1	0	1
CN(Cc1sc2ccccc2c1Cl)C(=O)C1CC2(CCNCC2)CN1 (configuration not stated)	6	3
CCOC(=O)c1nn(-c2ccc(C)cc2)c(=O)cc1OS(=O)(=O)c1ccc(F)cc1F	1	1
CCOc1ccc(S(=O)(=O)NCc2ccco2)c2ccccc12	4	0
CC(C)CN(Cc1nccn1Cc1ccccc1Cl)C(=O)Nc1ccc(C(F)(F)F)cc1	2	11
C=CCn1c(C)cn2c3c(=O)n(Cc4ccccc4)c(=O)n(C)c3nc12	-2	-5
CCOc1cc(C(=O)NCCc2csc3nc(-c4ccccc4C)nn23)cc(OCC)c1OCC	-3	-5
CCN(Cc1ccncc1)C(=O)CCc1nnc(CCC2CCCCC2)o1	6	6
CCOC(=O)c1nn(Cc2ccccc2)c2c1CN(C(=O)c1ocnc1C)CC2	15	2
CCCC(C)C(=O)N1CCN(C(C)=O)CC1 (configuration not stated)	10	6
COc1ccc(CN2CCCn3cccc3C2c2ccccc2[N+](=O)[O-])c(OC)c1 (configuration not stated)	1	9
NC(=O)C1Cc2ccccc2CN1C(=O)CCc1cccnc1 (configuration not stated)	-1	2
O=[N+]([O-])c1ccc(/C=N\Nc2cc(N3CCOCC3)nc(N3CCOCC3)n2)cc1	-6	-7
COC(=O)c1cccc(CC2(C)C(=O)Nc3ccc(-c4ccc5[nH]ccc5c4)cc32)c1 (configuration not stated)	3	-2

SMILES	NPYLR7 agonist	NPYLR7 agonist max-min
COc1cc(Cl)c(CN2C[C@H]3C[C@H](O)[C@H](O)C[C@H]3C2)c(Cl)c1OC	1	0
S=c1cc(-c2ccccc2)n(Cc2ccco2)c2c1CCCC2	-7	-13
COc1ccc(OC)c(C2C(=C(O)c3ccc(Cl)cc3)C(=O)C(=O)N2Cc2cccnc2)c1 (configuration not stated)	11	13
O=C1Cc2ccccc2C1C1=Cc2ccccc2C1 (configuration not stated)	4	8
CCNC(=S)N(CCCOC)Cc1c(-c2cccc(C)c2)noc1N1CCCC1	17	14
Cc1nc2n(n1)C(=O)C(C(c1cccs1)N1CCN(c3ccc(F)cc3)CC1)S2 (configuration not stated)	6	1
CC(C)Cc1cc(CNC(=O)C2CCOC2)on1 (configuration not stated)	1	1
Cc1cccc(Nc2ncnc3[nH]ncc23)c1C	3	3
CNc1nc2cnc(Nc3ccc(OC(C)C)cc3)cc2n1CC1CC1	7	-2
COc1ccc(-n2c(-c3ccccc3)n[nH]c2=S)cc1	-6	-11
CC(=O)Nc1ccc(C(=O)N2CCN3CCN(C)C(=O)C3C2)c(Cl)c1 (configuration not stated)	4	1
Cc1cccnc1CC(C)NC(=O)Cc1c(C)nc(N)nc1C (configuration not stated)	-2	-5
O=C(Cc1ccccc1)N1CCN(c2ncnc3c2nnn3Cc2ccccc2)CC1	-6	-9
COc1cccc(Cc2c(C)nc(C)nc2N2CCN(C(=O)c3ccccc3OC)CC2)c1	7	13
COC(CNc1nc2nonc2nc1NCc1cccs1)c1cccs1 (configuration not stated)	19	7
COc1ccc(S(=O)(=O)NC(c2ccc(SC)cc2)c2cccc(Cl)c2Cl)cc1OC (configuration not stated)	-8	-13
CCOc1ccc(N2C(=O)CC(Sc3nc(C)ccc3C#N)C2=O)cc1 (configuration not stated)	-4	-8
CCCN1C(=O)c2[nH]nc(-c3ccccc3O)c2C1c1cccc(Cl)c1 (configuration not stated)	9	5
CC(C)CC(=O)Nc1ccccc1N1CCN(C(=O)c2ccccc2)CC1	-3	-4
COC(=O)C1CCC2C(=CCC3C2CCC2C3CCC2(OC(C)=O)C(=O)COC(C)=O)C1 (configuration not stated)	-4	-5

SMILES	NPYLR7 agonist	NPYLR7 agonist max-min
OC[C@H]1CCN(Cc2cnc(NCc3ccccc3)nc2)C[C@@H]1O	21	12
NC[C@H]1O[C@H](OC2[C@@H](N)C[C@@H](N)[C@H](O[C@H]3O[C@H](CO)[C@@H](O)[C@H](N)[C@H]3O)[C@H]2O)[C@H](O)[C@@H](O)[C@@H]1O (some centres not stated)	-2	-8
CCN(CC)Cc1nc(-c2ccccc2)no1	-3	-6
COCCNC(=O)C(NC(=O)c1ccc2c(c1)OCO2)C1CCN(C(=O)c2cccc(F)c2)CC1 (configuration not stated)	4	6
COc1ccc2cc(C3CN(CCC(F)(F)C(F)F)CCO3)ccc2c1 (configuration not stated)	3	-4
COc1ccc(NC(=O)CCc2nc(-c3cccs3)no2)cc1S(=O)(=O)N1CCCCC1	-1	5
O=C(c1cccc([N+](=O)[O-])c1)N1CCN(c2nc(-c3ccc(F)cc3)nc3cc(Cl)ccc23)CC1	11	22
O=C(NCC1CCCO1)c1cccc(-c2ccc(O)cc2)c1 (configuration not stated)	1	-1
Cc1ccc(C(=O)N(C)Cc2nccn2C)cc1NC(=O)C1CCCC1	1	64
Cc1cc(C)c2cc(C(=O)N3CCC(n4c(Cc5ccccc5)nc5ccccc54)CC3)[nH]c2c1	5	1
CC1CCN(C(=O)c2ccc(-c3cccc(Br)c3)n2C)CC1	11	7
CCOC(=O)c1cnc(-c2ccc(OC)cc2)nc1NCc1ccccn1	-1	1
Cc1cc(C)n2nc(SCC(=O)NCCc3ccccc3F)nc2n1	1	-5
Cc1cc(C)nc(NN=C2CCCC2)n1	7	11
CC(C)Cc1cc(C(=O)N2CCCC(C(=O)c3cc(F)ccc3F)C2)n(C)n1 (configuration not stated)	10	1
CCN(CC)S(=O)(=O)c1ccc(OCCNS(C)(=O)=O)cc1	2	0
Cc1cc(=O)c(C(=O)N2CCC3(CCCO3)CC2)c(C)[nH]1	9	8
COCCc1nc2ccc(C(=O)NCc3ccc(-n4cccn4)cc3)cc2o1	2	-1
COc1cc([N+](=O)[O-])ccc1-c1ccc(/C=C2/NC(=S)NC2=O)o1	1	-13
COc1cccc(-n2cn[nH]c2=S)c1	8	11

Some of these compounds in order of length of the SMILES, smallest number first.
SMILES	NPYLR7 agonist	NPYLR7 agonist max-min
COc1cccc(-n2cn[nH]c2=S)c1	8	11
Cc1cc(C)n2nc(SCC(=O)NCCc3ccccc3F)nc2n1	1	-5
Cc1cc(=O)c(C(=O)N2CCC3(CCCO3)CC2)c(C)[nH]1	9	8
COCCc1nc2ccc(C(=O)NCc3ccc(-n4cccn4)cc3)cc2o1	2	-1
COc1ccc(NC(=O)CCc2nc(-c3cccs3)no2)cc1S(=O)(=O)N1CCCCC1	-1	5
COCCNC(=O)C(NC(=O)c1ccc2c(c1)OCO2)C1CCN(C(=O)c2cccc(F)c2)CC1 (configuration not stated)	4	6

(more compounds)
SMILES | NPYLR7 agonist | NPYLR7 agonist max-min
Nc1cc(S(=O)(=O)N2CCCC2)ccc1Cl | 7 | 7
N#Cc1cccc(NC(=O)c2csc(-c3ccsc3)n2)c1 | 6 | 1
Cc1ccc(-n2nc(C(C)(C)C)cc2NC(=O)CN(CC(C)C)C(=O)Cc2ccccc2)c(C)c1 | -1 | 2
CCCc1noc(C(C)Nc2cc(OC)c(OC)c(OC)c2)n1 (configuration not stated) | 2 | 1
C=CCn1nnc(NC(=O)COc2c(C)cc(C)cc2Cl)n1 | 0 | -1
Oc1ccc2c(c1)C1CCCC1(N1CCOCC1)O2 (configuration not stated) | 5 | 2
Cc1cccc(NC(=O)C2CC(=O)N(CCc3ccccc3)C(=Nc3ccc(F)cc3)S2)c1 (configuration not stated) | -16 | -22
CCn1c(SC(C)c2nc3sc(C)c(C)c3c(=O)[nH]2)nnc1-c1cccs1 (configuration not stated) | 10 | 7
CC1C(=O)NCCN1C(=O)c1ccc(-c2ccc3c(c2)OCCO3)s1 (configuration not stated) | 6 | 5
CCOCCn1c(CN2CCCCC2)nc2c1c(=O)n(C)c(=O)n2C | -17 | -16
Nc1nc(SC(C(=O)NC2CCCC2)c2ccccc2)n[nH]1 (configuration not stated) | -15 | -23
COCC(=O)N1CCC(n2cnc3cc(C(F)(F)F)ccc32)CC1 | 4 | 2

SMILES | NPYLR7 agonist | NPYLR7 agonist max-min
CCN1CCN(C(=O)CCCn2nnnc2CN2CCOCC2)[C@@H](C)C1=O | 5&4 | 0&4
C=S(C)(=O)Nc1cccc2c1C(=O)c1ccccc1C2=O (configuration not stated) | -4 | -6
Cc1nn(-c2ccccn2)c2ncc(C(=O)NCC(=O)NC(C)(C)C)cc12 | 11 | 5
Cc1cccc(CO[C@]2(C(=O)NCCN3CCCC3)CC(OCc3cccc(F)c3F)[C@H](O)[C@H](O)C2)c1 (some centres not stated) | 21 | 29
COCC(=O)Nc1ccc(-n2nc(OCc3ccc(F)cc3)nc2-c2cccc(C(F)(F)F)c2)cc1 | 11 | 9
Cc1cn2c3c(=O)[nH]c(=O)n(C)c3nc2n1-c1cccc(Cl)c1 | 15 | 7
CCC(CC)NC(=O)CSc1nnc(N2CCCCC2)n1CC1CCCO1 (configuration not stated) | 19 | 7
O=C(N[C@H]1CCCCNC1=O)c1csc(CSc2nnc(-c3cccnc3)n2-c2ccccc2F)n1 | 16 | 12
COc1ccc2cc(C3CN(C(=O)c4ccnc(OC)c4)CCO3)ccc2c1 (configuration not stated) | -8 | -8
CC(=O)Nc1cccc(NC(=S)NC(NC(=O)Cc2ccccc2)C(Cl)(Cl)Cl)c1 (configuration not stated) | -11 | -15
COc1ccc(-n2nnnc2SCC(=O)N2CCCCCC2)cc1 | 5 | 0
CC(=O)c1cccc(S(=O)(=O)N2CCN(C(=O)c3ccc(-n4cncn4)cc3)CC2)c1 | 7 | 13

SMILES | NPYLR7 agonist | NPYLR7 agonist max-min
Cc1ccccc1C(=O)Nc1sc2c(c1C(=O)NCC1CCCO1)CCCC2 (configuration not stated) | 3 | 1
C=CCN1C(=O)C(=O)N(CC2CCCCC2)C1=O | -1 | -3
O=C(CNC(=O)c1ccc(Cl)cc1)N=Nc1c(O)[nH]c2ccc([N+](=O)[O-])cc12 | -5 | -14
COc1ccc(C=NNC(=O)c2ccn[nH]2)cc1 | 1 | 2
CCCCC1=NN2C(=N)/C(=C/c3ccc(Cl)cc3)C(=O)N=C2S1 | 0 | 0
CC(=O)Nc1ccc(-c2c(-c3ccccc3)ncn2Cc2cccnc2)cc1 | -18 | -18
CCCc1nc(N2CCCN(C(=O)c3cccc([N+](=O)[O-])c3)CC2)c2c(-c3ccc4ccccc4c3)noc2n1 | 16 | 7
O=C(CN1CCC2(CCOC2)C1)NCCC1CCCCC1 (configuration not stated) | 0 | 2
O=C(NCCOc1ccccc1)c1ccc(-c2cc(-c3ccc(Cl)cc3)[nH]n2)cc1 | -1 | 9
CCOc1ccc(C(=O)Nc2ccc(Cl)c(-c3nc4ccccc4o3)c2)cc1[N+](=O)[O-] | 1 | 3
O=C(c1ccc2c3c(cccc13)CC2)C1CCCN(C(=O)CCn2cccn2)C1 (configuration not stated) | 5 | -2

Four of the compounds above, as labelled records.
O=C(c1ccc2c3c(cccc13)CC2)C1CCCN(C(=O)CCn2cccn2)C1 (configuration not stated)
- NPYLR7 agonist = 5
- NPYLR7 agonist max-min = -2
Cc1ccccc1C(=O)Nc1sc2c(c1C(=O)NCC1CCCO1)CCCC2 (configuration not stated)
- NPYLR7 agonist = 3
- NPYLR7 agonist max-min = 1
CC(=O)Nc1ccc(-c2c(-c3ccccc3)ncn2Cc2cccnc2)cc1
- NPYLR7 agonist = -18
- NPYLR7 agonist max-min = -18
O=C(NCCOc1ccccc1)c1ccc(-c2cc(-c3ccc(Cl)cc3)[nH]n2)cc1
- NPYLR7 agonist = -1
- NPYLR7 agonist max-min = 9
